TRPML1 inh: qHTS for Inhibitors of the Human Mucolipin Transient Receptor Potential 1 (TRPML1). Mucolipin-1 (Homo sapiens), Q9GZU1. TRPML1-inducible cells, Ca2+ dye fluorescence, FDSS; hits give low values; inhibition of EC80 agonist-evoked calcium signal. activity change, negative = inhibition, % (concentration not given with the values). 390,000 tested, 0.02% active; in the data active means activity change below about -50%; inconclusive means about -30% to -50%; inactive means above about -30%;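 further: stimulus is agonist 54-4 at its EC80 concentration; on the % scale 0 is the no-effect control and ±100 the full control effect; compound concentration not given in the record; the text of the record puts the active cut at -80%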
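Calcium fluorescence in TRPML1-DL cells induced overnight with Tet: a 110 s read after compound pin addition, then a 110 s antagonist read after challenge with 54-4 at 4 uM final (EC80).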
Menin-MLL FL inh: qHTS Assay for Inhibitors Targeting the Menin-MLL Interaction in MLL Related Leukemias: Competition With Fluorescein Labeled MLL-derived Peptide; Fluorescence polarization, fluorescein-MLL peptide displacement from menin; FP activity change, % at 61.4 µM; 290,000 tested, under 10 active; AID 1766, 2009; inconclusive = falling polarisation curve, or a change in total fluorescence; inactive = total fluorescence flat and polarisation flat or rising; no compound was filed as active; the % refers to the polarisation; negative = inhibition;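 further: % of control where 0% means no effect; inhibitors lower the polarisation; unlabelled MLL peptide was the positive control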
TRPV1 PAM: HTS Assay for Compounds that Act as Potentiators of the Vanilloid Receptor 1. potentiation, % at 8.33 µM. TRPV1-expressing cells, Fluo-8 calcium influx, capsaicin EC20 potentiation; host cell line not named in the record; control for the full effect not named in the record. 320,000 tested, 0.02% active; active means potentiation above 80%; inconclusive means 30% to 80%; inactive means below 30%; further: 0% is about no effect
Target sequence (Q8NER1 whole entry, looked up): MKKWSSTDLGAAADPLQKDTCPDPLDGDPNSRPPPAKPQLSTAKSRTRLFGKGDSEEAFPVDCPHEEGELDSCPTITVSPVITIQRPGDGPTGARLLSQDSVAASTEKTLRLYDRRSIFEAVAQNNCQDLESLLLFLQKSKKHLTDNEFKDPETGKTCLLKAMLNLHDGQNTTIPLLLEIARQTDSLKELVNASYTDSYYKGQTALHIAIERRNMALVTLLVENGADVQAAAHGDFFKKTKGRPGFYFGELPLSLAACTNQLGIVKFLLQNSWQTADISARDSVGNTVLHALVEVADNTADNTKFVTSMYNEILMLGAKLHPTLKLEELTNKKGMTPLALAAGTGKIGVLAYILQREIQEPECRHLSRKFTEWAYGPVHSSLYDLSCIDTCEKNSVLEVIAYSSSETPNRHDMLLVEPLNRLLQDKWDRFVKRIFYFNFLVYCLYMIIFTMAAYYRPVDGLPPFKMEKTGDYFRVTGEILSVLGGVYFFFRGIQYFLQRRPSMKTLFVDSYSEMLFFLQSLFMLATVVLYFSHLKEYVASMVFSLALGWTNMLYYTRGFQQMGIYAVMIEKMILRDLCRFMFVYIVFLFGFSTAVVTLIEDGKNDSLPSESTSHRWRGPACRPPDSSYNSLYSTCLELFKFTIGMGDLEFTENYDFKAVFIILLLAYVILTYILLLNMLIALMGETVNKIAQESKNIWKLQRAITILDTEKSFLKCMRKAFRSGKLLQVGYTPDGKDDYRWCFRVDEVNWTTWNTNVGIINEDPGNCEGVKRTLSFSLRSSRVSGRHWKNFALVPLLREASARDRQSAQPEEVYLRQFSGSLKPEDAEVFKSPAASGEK
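Fluo-8 calcium influx in TRPV1-expressing cells, kinetic read (ex 480/em 520 nm). Compound added and read 3 min for agonist activity, followed by capsaicin at EC20 final and 2 min further read for enhancement.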
ClpP mod: qHTS Assay for Activators of ClpP | ATP-dependent Clp protease proteolytic subunit (Bacillus subtilis (strain 168)), P80244 | purified B. subtilis ClpP, FRET peptide cleavage, 20 min | Potency, µM (series often up to 57.5 µM), for the others: at the highest dose activity change, negative = active | 340,000 tested, 1.9% active | AID 651965, 2013; active = well fitted falling curve with a large enough effect; inconclusive = small, poorly fitted or top-dose-only effect; inactive = no such curve, though single readings can be large or run the other way; further: potency means the concentration at half of the fitted maximal effect; the source files actives as falling curves though it sought activators and does not explain the sign; nearly all actives have a fitted effect of over 65% in size; many hits overshoot -100%
Target sequence (P80244 whole entry, looked up): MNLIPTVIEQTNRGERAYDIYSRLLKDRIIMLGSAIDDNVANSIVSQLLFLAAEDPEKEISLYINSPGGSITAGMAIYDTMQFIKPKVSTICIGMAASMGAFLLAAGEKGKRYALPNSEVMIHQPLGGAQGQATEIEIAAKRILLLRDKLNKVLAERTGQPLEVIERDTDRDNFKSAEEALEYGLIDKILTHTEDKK
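Buffer: 100 mM Tris/HCl pH8, 100 mM KCl, 0.05% low protease BSA, 2.5% glycerol, 0.01% Tween-20. ClpP 10 microg/mL final; 20 min RT; delta FRET normalized to ADEP and DMSO controls.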
Sfp PPTase inh: qHTS Assay for Inhibitors of Bacillus subtilis Sfp phosphopantetheinyl transferase (PPTase) | 4'-phosphopantetheinyl transferase ffp (Bacillus subtilis), Q9F4F7 | Biochemical Sfp PPTase activity, qHTS | Potency, µM, for inactives: max response, negative = inhibition, usual class: inhibitors | 310,000 tested, 3.5% active | AID 1490, 2009; active means well fitted inhibition curve with a large enough effect; inconclusive means small, poorly fitted or top-dose-only effect, or another doubt; inactive means no such curve, though single readings can be large or run the other way;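 further: the enzyme is Sfp with the accession as filed and its product quenches rhodamine fluorescence; potency means the concentration at half of the fitted maximal effect; 0% = enzyme reaction without inhibitor and -100% = no enzyme wells; top concentration of the series not given in the record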
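With Hepes-Na pH 7.6 buffer containing 10 mM MgCl2, Sfp (15 nM) modified BHQ-2-YbbR (12.5 uM) using rhodamine-CoA (5 uM). Two reads 30 minutes apart at 525/598 nm yielded each well's rate.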
gsp antagonist: qHTS for Antagonists of gsp, the Etiologic Mutation Responsible for Fibrous Dysplasia/McCune-Albright Syndrome: qHTS; gsp-mutant cells, cAMP HTRF, 30 min; control for the full effect not named in the record; Potency, µM (doses to about 76.9 µM), for the others: at the top dose activity change, negative = inhibition, actives largely listed as inhibitors; 340,000 tested, 0.4% active; AID 624288, 2012; active = falling curve of any shape with a large fitted effect; inconclusive = falling curve, mostly with a smaller effect; inactive = flat or rising curve; cell line not stated here;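 further: intracellular cAMP measured with PDE inhibitor Ro 20-1724 present during compound exposure; potency means the concentration at half of the fitted maximal effect; on the % scale 0 is the no-effect control and ±100 the full control effect; nearly all actives have a fitted effect of over 65% in size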
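G418-selected cells were plated in DMEM/10% FBS for 16-24 h at 37C, then treated with compounds plus the PDE inhibitor […] (300 uM solution added) for 30 min at 37C. Intracellular cAMP was measured by HTRF after 30 min lysis at room temperature.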
gsp ag: qHTS for Agonist of gsp, the Etiologic Mutation Responsible for Fibrous Dysplasia/McCune-Albright Syndrome: qHTS. gsp mutant cells, cAMP HTRF, 30 min; control for the full effect not named in the record. Potency, µM (titrated, usually from 76.9 µM), without a hit: at the highest dose activation (cAMP increase), most hits filed as activators. 340,000 tested, 0.13% active; active = well fitted activation curve with a large enough effect; inconclusive = small, poorly fitted or top-dose-only effect, or another doubt; inactive = no such curve, though single readings can be large or run the other way; cell line not stated here;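 further: phosphodiesterase inhibitor Ro 20-1724 added with compounds to block cAMP breakdown; potency means the concentration at half of the fitted maximal effect; nearly all actives have a fitted effect of over 60% in size; about a fifth of the inactives were tested at one dose only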
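Cells in DMEM/10% FBS with G418 were pretreated with compounds in DMSO plus […] (300 uM stock) for 30 min at 37C. cAMP was measured by HTRF (cAMP-d2 plus anti-cAMP antibody-K) after 30 min at room temperature.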
* marks the source's active call; other numbers are inactive results; ? = inconclusive; / = not tested or not shown; & = joins results of further samples; [ ] = another dose, or the depositor's remark.

molecule	TRPML1 inh	Menin-MLL FL inh	TRPV1 PAM	ClpP mod	Sfp PPTase inh	gsp antagonist	gsp ag
Cc1cccc(NS(=O)(=O)c2ccc(C)c(C(=O)N(C)C)c2)c1	11	/	6	-0.6%	/	3%	17%
OCCCNc1c2c(nc3cc(-c4ccc(Cl)cc4)nn13)CCC2	15	0.1	-13	?	1%	-28%	7%
CC1CC(C)CN(c2ncnc3c2cnn3Cc2ccc(Cl)cc2)C1 (configuration not stated)	35	-1.3	-2	-2.0%	2%	6%	-26%
Cc1cc(C(=O)OCC(=O)Nc2cc(C)on2)c2ccccc2n1	0	2.0	-5	?	4%	-3%	-1%
C=CCOc1ccc(/C=N/NC(=O)c2cc3c(OC)cc(OC)cc3[nH]2)cc1	/	0.0	5	3.4%	8%	?	?
COc1ccc2c(Cl)c(-c3nnc4n3CCCCC4)sc2c1	0	-1.6	-46	0.6%	-16%	0%	?
O=[N+]([O-])c1cc(S(=O)(=O)N2CCCC2)ccc1O	-14	/	23	-1.5%	2%	2%	13%
CCCCc1c(C)nc2ccc(C(=O)OCC)cc2c1Cl	-1	9.9	-11	-2.0%	3%	11%	0%
Cc1ccc(S(=O)(=O)n2nc(C)c(S(=O)(=O)N3CCCCC3)c2C)cc1	2&2	2.7	5	-0.5%&0.3%	22%	2%	13%
Cc1ccc(S(=O)(=O)N2CCOCC2)cc1NC(=O)COc1ncnc2ccccc12	3	-0.7	-6	-2.1%	5%	1%	?
O=C1C(=Cc2cccn2-c2ccccc2)C(=O)c2ccccc21	-19	?	?	-1.2%	?	5%	10%[15.4 µM]
CCOc1ccc(C(=O)Cc2ccc3oc(C(=O)O)cc3c2)c(O)c1	-4	2.6	-6	-3.8%	14%	-23%	-23%
COc1ccc(C2(CNS(=O)(=O)c3ccccc3)CCOCC2)cc1	2	2.0	-10	-0.5%	24%	-2%	-1%
CCCCc1c(O)nc(SCC(=O)Nc2cccc3ccccc23)n(-c2ccccc2OC)c1=O	18	6.6	5	-4.7%	9%	-13%	?
Cc1csc(NC(=O)CCC(=O)c2cccs2)n1	-2	-1.6	1	/	19%	/	-7%[15.4 µM]
NS(=O)(=O)c1cccc(NC(=O)c2cc(=O)c3ccccc3o2)c1	-9	-3.2	2	/	-6%	1%	?
CCc1cc(C)cc(OCCNC(=O)c2cncc(Br)c2)c1	2	3.7	1	-4.0%	-11%	-10%	-5%
COc1ccc2[nH]c(CN3CCC(CO)(CCOc4ccccc4)CC3)c(C)c2c1	-4	-0.3	3	/	-22%	3%	-3%[15.4 µM]
CC(=O)NNc1nc2ccccc2s1	-18	-0.3	/	0.2%	10%	16%	-9%
COc1ccc(N=Cc2c(OC)ccc3ccccc23)cc1	-2	/	/	/	/	-1%	-6%[15.4 µM]
CCOC(=O)N1CCc2c(sc3c2c(=O)n(Cc2ccccc2)c(=O)n3CC(=O)NCC2CCCO2)C1 (configuration not stated)	8	/	13	0.4%	3%	?	18%
CCC1CCCCN1CCCNC(=O)c1cn(CC)c2ccc(S(=O)(=O)N(C)C3CCCCC3)cc2c1=O (configuration not stated)	-11&7	/	-10	-1.6%&-1.2%	4%	7%	-15%
CC(=O)N(c1ccccc1)c1nc2ccccc2s1	12	/	/	/	/	2%	-6%
O=C(/C=C/c1ccco1)NCc1ccc(F)cc1	-3	?	-27	/	40µM*	-4%	-17%[15.4 µM]
O=C(O)C1Cc2[nH]cnc2C(c2ccc(F)cc2)N1 (configuration not stated)	30	-0.1	-4	0.3%	-37%	8%	9%
CCOC(=O)C1=C(C(=O)OCC)N(Cc2ccccc2)CCC1=O	-6	/	/	0.8%	/	0%	/
O=C(CN1CCOCC1)Nc1ccc(Cl)cn1	3	-0.4	6	/	8%	8%	-22%
CCOC(=O)c1ccc(-c2c(-c3ccccc3OC)sc3ccc(OC)cc23)cc1F	-10	/	/	?	/	-1%	2%
CC(OC(=O)CCC1CCCC1)C(=O)Nc1ccccc1[N+](=O)[O-] (configuration not stated)	4	/	-12	-0.6%	/	19%	-38%
CCC(=O)Nc1ccc(C(=O)OCC(=O)c2cccs2)cc1	26	1.0	7	-3.4%	2%	-2%	22%[15.4 µM]
CC(=C/c1ccccc1)/C=N/NC(=O)c1ccc2nc[nH]c2c1	21	3.4	10	-2.5%	4%	4%	-18%
O=C1C2C3C=CC(CC3)C2C(=O)N1c1ccccc1[N+](=O)[O-] (configuration not stated)	5	-1.4	13	/	56µM*	13%	8%[15.4 µM]
Cn1nnc(NC(=S)NC(=O)c2ccc(-c3ccc(Br)cc3)o2)n1	8	-2.0	2	/	-15%	-5%	14%[15.4 µM]
CCN(CC)CCNC(=O)c1ccc(NC(=O)COc2ccc3c(c2)CCC3)cc1	-18	/	-4	-1.2%	/	8%	-26%
CC(=O)Nc1ccc(SC[C@H](Cc2ccccc2)N2CC[C@@H](C)CCC2=O)cc1	4	/	-10	1.0%&-1.8%	/	-15%	?
Cc1ccc(-c2nn(-c3ccccc3)cc2C2CC(c3ccccc3)=NN2C(=O)CCC(=O)O)cc1 (configuration not stated)	45	3.4	-11	/	-20%	-27%	-1%[15.4 µM]
CCCOC(=O)c1c(NC(=O)C2CCCO2)sc(C(=O)OC)c1C (configuration not stated)	27	5.7	?	-2.0%	6.3µM*	-29%	4%[15.4 µM]
COc1ccc(/C=N/NC(=O)C(=O)NCc2cccnc2)cc1	-6	-10	1	/	15%	3%	-1%[15.4 µM]
CN(CCOc1ccc(Cl)cc1)Cc1cccc(S(=O)(=O)N(C)C)c1	10	2.7	-3	-1.4%	5%	-6%	2%[15.4 µM]
COc1cc(C(=O)NCc2cn3ccccc3n2)cc(OC)c1OC	5	2.9	9	-9.6%	-14%	5%	14%
CCOC(=O)N1CCC(N2CCCC(CO)(Cc3cccc(Cl)c3)C2)CC1 (configuration not stated)	8	?	0	/	6%	-20%	2%[15.4 µM]
CCCC(=O)Nc1sc(C)c(C)c1C#N	-5	1.9	5	/	-22%	-9%	-3%[15.4 µM]
Cc1noc(C)c1COc1ccccc1C(=O)N(C)CC(=O)Nc1ccc(F)cc1	4	/	7	-2.2%	/	12%	-8%
O=C(NCc1ccc2c(c1)OCO2)C1CC(=O)N(C2CCCCCC2)C1 (configuration not stated)	26	4.2	-19	0.0%	16%	4%	8%
Cc1cccc(NC(=O)c2cc(=O)[nH]c3ccccc23)c1	/	9.5	-3	-7.7%	8%	7%	0%
CCOC(=O)c1oc2ccc(S(=O)(=O)N3CCOCC3)cc2c1C	25	-0.4	-5	0.6%	9%	13%	17%
O=C(CNS(=O)(=O)c1c(Cl)cccc1Cl)OCC(=O)c1ccc[nH]1	5	1.1	-2	-2.3%	-24%	-14%	11%
CC1CC(C)CN(C(=O)CSc2nnc(-c3ccc(F)cc3)o2)C1 (configuration not stated)	3	2.7	-12	0.6%	-27%	-12%	-68%[inhibitor]
CCOC(=O)c1cc(C#N)c(SC(C)C(=O)NC2CCCCC2)nc1C (configuration not stated)	2	/	-4	-1.8%	/	9%	-22%
Nc1nnc(SCC(=O)NC23CC4CC(CC(C4)C2)C3)s1	6	-0.1	-2	-0.3%	8%	12%	7%

(more compounds)
molecule	TRPML1 inh	Menin-MLL FL inh	TRPV1 PAM	ClpP mod	Sfp PPTase inh	gsp antagonist	gsp ag
CCc1ccc(/C(C)=N/NS(=O)(=O)c2ccc(OC)cc2)s1	-2	1.6	5	1.2%	5%	-11%	-9%
COc1cc(C)ccc1OCc1cc(C(=O)NC(c2ccccn2)C(F)(F)F)no1 (configuration not stated)	-3	/	/	-3.4%	/	/	-14%
COc1ccc2[nH]c(=O)c(CN(C(=O)c3ccccn3)c3ccccc3)cc2c1	6	2.3	4	-22%	1%	-2%	-38%[inhibitor]
CC1(CC(=O)NNC(=O)Nc2ccccc2)OCCCO1	3	2.7	11	/	3%	3%	-2%[15.4 µM]
CCCc1cc(C(N)=O)c(NC(=O)c2cc(C)on2)s1	8	12	1	-3.5%	32µM*	-19%	0%
CCN1CCN(C(=O)C2CCC(=O)N(Cc3cccc(C(F)(F)F)c3)C2)CC1 (configuration not stated)	15	0.4	-2	-1.1%	5%	10%	4%[15.4 µM]
NC(=O)c1ccccc1NC(=O)CN1CCCCCC1	46	/	-4	0.5%	17%	17%	?
C=CCN1C(=O)/C(=C2/Sc3ccccc3N2C)SC1=Nc1c(C)n[nH]c1C	7	1.8	5	1.7%	-14%	-3%	8%
C=CCOc1c(CNc2ccc3[nH]c(=O)[nH]c3c2)cccc1OC	27	2.2	-9	/	4%	-9%	-3%[15.4 µM]
CCOc1ccccc1NC(=O)c1cc(-c2ccncc2)nc2c(Cl)cccc12	61	-3.3	21	/	?	-12%	-13%[15.4 µM]
CCOC(=O)Cn1c(=O)c2c(nc(N3CCOCC3)n2C)n(C)c1=O	-2	0.7	1	-3.4%	8%	-5%	-55%[inhibitor]
COc1ccccc1OCc1n[nH]c(=S)n1Cc1ccccc1	-1	-9.3	-1	/	8%	2%	19%[15.4 µM]
NC(=O)CC(NC(=O)Cc1cccc2ccccc12)c1ccc(NC2CCCCCC2)c([N+](=O)[O-])c1 (configuration not stated)	13	2.2	?	-1.2%	-11%	3%	-8%
O=C(N/N=C/c1ccc(N2CCOCC2)s1)c1ccc(O)cc1	-16	/	/	-4.0%	/	/	-77%[inhibitor]
O=C(NC1CC1(c1ccccc1)c1ccccc1)c1ccccc1 (configuration not stated)	-5	/	/	0.5%	/	?	-1%

Assay outcomes (PubChem BioAssay)
